HIV TAR-Tat: TAR RNA-Tat peptide displacers, HIV-1, primary screen, biochemical, FRET, FAM/TAMRA-labeled Tat; HIV-1 TAR RNA, Tat peptide displacement FRET; hits give high values; z-score (no concentration beside the values); AID 1259389, 2018; 0.6% of 100,000 active;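 further: score is relative to mean and SD of negative controls; some compounds called inactive have numbers as strong as hits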
CDC25B-CDK2 inh: primary biochemical HTRF screen for blockers of M-phase inducer phosphatase 2 binding to CDK2/cyclin A; 0.72% of 94,000 active; P30305+P24941; HTRF CDC25B-CDK2/CyclinA binding, anti-His/anti-Flag; hits give high values; z-score (no concentration beside the values);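 further: score is relative to mean and SD of negative controls; strong numbers were not always called active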
Numbers without * were called inactive; · = no result given.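 How the source made its calls: active means z-score from 3 up in half or more of its runs; inactive means the rest.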

Value order – HIV TAR-Tat, CDC25B-CDK2 inh
Cc1noc(C)c1CCNC(=O)C1CCN(c2nnc(N3CCCC3=O)s2)CC1
  2.3, ·
CC1(C)OC(=O)C(Cc2ccc([N+](=O)[O-])cc2)C(=O)O1
  ·, -1.07
NC(=O)C1CCN(C(=O)c2ccc(NC3=NC4CS(=O)(=O)CC4S3)cc2)CC1 (stereo not drawn)
  1.47, ·
CCCN1CCN(S(=O)(=O)c2ccc3c(c2)NC(=O)C(C)CS3)CC1 (stereo not drawn)
  0.13, ·
C=CCN1C=C(OC(=O)COc2ccc(C)cc2)c2ccccc2S1(=O)=O
  -1.1, -0.86
CN(Cc1ccccc1)S(=O)(=O)c1cn(C)cn1
  1.86, -0.07
CC(C)c1ccc2oc(-c3cccc(N)c3)nc2c1
  -0.39, -2.36
O=C(CSc1nc2ccsc2c(=O)n1Cc1ccc2c(c1)OCO2)NCc1ccc(Cl)cc1
  -0.7, ·
O=C(Nc1cnc2ccccn2c1=O)c1ccccc1
  1.23, 0.23
Cc1cc(-c2ccc(C)c(S(=O)(=O)N3c4ccccc4CC3C)c2)on1 (stereo not drawn)
  -0.2, ·
Cc1sc2ncnc(SCC(=O)c3ccccc3F)c2c1C
  0.47, -2.94
CCOc1ccc(-n2nnc(-c3nc(-c4ccccc4C)no3)c2N)cc1
  -0.07, ·
Cc1cccc(-c2c3c(=O)n(C)c(=O)n(C)c3c3n2CCOC3c2coc3ccccc3c2=O)c1 (stereo not drawn)
  0.11, 0.58
COc1ccc(OC)c2nc3c(nc12)C(=O)c1ccccc1-3
  ·, -2.54
COC(=O)c1ccc(C2CC(=O)Nc3c2c(=O)nc(SCc2ccccc2Cl)n3C)cc1 (stereo not drawn)
  2.3, -1.69
O=C(CCc1nc(-c2ccccc2)no1)N1CCCC1
  0.76, -2.51
COC(=O)c1c(NC(=O)c2cc(-c3ccc4c(c3)OCCO4)on2)sc2c1CCCC2
  1.89, -1.97
O=C(NC1CCCCCCCCCCC1)c1cccc(-n2cnnc2)n1
  2.05, ·
COc1ccc(NS(=O)(=O)c2cccs2)c(OC)c1
  0.29, -0.57
CCN(CC)S(=O)(=O)c1ccc2c(c1)N(CC(=O)O)CCS2
  0.77, ·
CCCCc1nn2c(=O)cc(CSc3nc4ccc(NC(=O)c5ccco5)cc4s3)nc2s1
  -0.21, ·
Cc1[nH]c2c(Cl)cccc2c(=O)c1CN1CCCC1
  -0.13, -0.54
CCOc1ccc(-c2noc(-c3nnn(-c4cccc(C)c4C)c3N)n2)cc1
  -0.19, ·
CN1CCN(c2nc3c(c(=O)n(C)c(=O)n3C)n2Cc2c(F)cccc2Cl)CC1
  1.57, -1.43
CN(C(=O)C1=Cc2ccccc2OC=C1)c1ccccc1
  -2.01, 0.77
Cc1cc(F)ccc1S(=O)(=O)NCCc1csc2nc(-c3ccc(F)cc3)nn12
  0.95, ·
CCc1nn2c(=O)cc(CSc3nc(-c4ccccc4F)nc4cc(=O)[nH]n34)nc2s1
  0.32, ·
CN(C)c1ccc(C2CC(=O)c3ccccc3N2)cc1 (stereo not drawn)
  ·, -1.39
Cc1cccc(OCc2nn3c(-c4ccccc4Br)nnc3s2)c1
  2.12, 0.51
O=[N+]([O-])c1cccc(-c2noc(-c3sc4ccccc4c3Cl)n2)c1
  ·, -1.52
CCSC1(SCC)N=C(N)C2(C#N)C(c3cccc(OC)c3)C12C#N (stereo not drawn)
  ·, -1.21
CCOC(F)(C(N)=O)C(F)(F)F (stereo not drawn)
  ·, -1.08
CCOC(=O)c1c(C)oc2ccc(OCc3ccc(Cl)cc3)cc12
  ·, -1.34
COc1ccc(C2Oc3c(OC)cccc3C3CC(c4cccs4)=NN32)cc1 (stereo not drawn)
  ·, -1.86
CCCCCCCCCCCCCC/C(C(=O)O)=C(\C)C(=O)O
  2.43, ·
Cc1ccccc1OCC(=O)OCc1cc(=O)n2nc(C3CC3)sc2n1
  -0.17, ·
Cc1cc(C)n2nc3c(c(C)cc(C)[n+]3-c3ccccc3)c2n1
  -6.58, -2.75
CCOC(=O)c1ccccc1NC(=O)CN(c1cc(Cl)ccc1OC)S(C)(=O)=O
  ·, 0.96
COC(=O)CSC1=C(C#N)C(=O)NC(/C=C/c2ccccc2)S1 (stereo not drawn)
  0.33, -1.6
COc1ccc(-c2nc3n(c(=O)c2C#N)CCS3)cc1
  1.81, 0.47
CCC1(C)Cc2c(sc(N)c2C(N)=O)CO1 (stereo not drawn)
  -2.71, 0.35
O=C(CSc1nnc2c(n1)[nH]c1ccccc12)OCN1C(=O)c2ccccc2C1=O
  ·, -3.63
COc1ccccc1N1CSC2=C(C#N)C(c3ccc(SC)cc3)CC(=O)N2C1 (stereo not drawn)
  -1.41, 4.61*
COc1ccc(N2CSC3=C(C#N)C(c4cccc(OC)c4)CC(=O)N3C2)cc1 (stereo not drawn)
  0.29, 6.07*
CN=C(C)/C(C(=O)OC)=C(\O)c1cc(C)on1
  ·, 0.02
CCN(CC)c1cc(C)nc2nc(-c3ccc(C)cc3)nn12
  1.03, -3.96
CC(=O)N1c2ccc(S(=O)(=O)NC3CCCc4ccccc43)cc2CC1C (stereo not drawn)
  1.67, ·
O=C(CSc1oc(-c2cccs2)nc1S(=O)(=O)c1ccc(F)cc1)NC1CCCCC1
  -2.61, -4.15
O=C(Nn1cnnc1)c1c(F)cccc1F
  ·, -0.95
COc1ccc(NC(=O)N2CCN(c3ccc(OC)cc3)CC2)cc1
  ·, -3.15
Oc1ccccc1-c1ccnc2cc(-c3ccc(Cl)cc3)nn12
  -0.15, -0.68
O=C(NCCN1CCOCC1)c1nnc(Cc2ccc3c(c2)OCO3)o1
  -0.21, -0.47
CN(Cc1ccco1)c1c(-c2ccc(Cl)cc2)c(=O)c1=O
  0.15, ·
COC(=O)c1cccc(-c2ccc(/C=C3\C(=O)N(c4cccc(C(=O)O)c4)N=C3C)o2)c1
  ·, -2.26
COC(=O)C(C)NC(=O)CCc1c(C)nc2c(c1C)c(=O)n(C)c(=O)n2C (stereo not drawn)
  -0.1, -1.63
O=C(Nc1ccc(Br)cc1)N1CCCC1c1cccs1 (stereo not drawn)
  0.75, -1.6
CCOC(=O)C1=C(C)NC(C)=C(C(=O)OCC)C1c1ccc(C)cc1
  ·, -0.22
O=C(NC1CCCCC1)c1sc2ccccc2c1Cl
  ·, -3.49
CCOC(=O)c1cnc(=O)[nH]c1N
  ·, -1.32
CS(=O)(=O)Nc1cccc(C2=NN(C(=O)CCC(=O)O)C(c3cccc(F)c3)C2)c1 (stereo not drawn)
  ·, -2.79

Quoted at random: five records from the list, in no set order.
Value order – HIV TAR-Tat, CDC25B-CDK2 inh
C=CCN1C=C(OC(=O)COc2ccc(C)cc2)c2ccccc2S1(=O)=O
  -1.1, -0.86
COC(=O)c1ccc(C2CC(=O)Nc3c2c(=O)nc(SCc2ccccc2Cl)n3C)cc1 (stereo not drawn)
  2.3, -1.69
COC(=O)c1c(NC(=O)c2cc(-c3ccc4c(c3)OCCO4)on2)sc2c1CCCC2
  1.89, -1.97
CCOc1ccc(-n2nnc(-c3nc(-c4ccccc4C)no3)c2N)cc1
  -0.07, ·
CN1CCN(c2nc3c(c(=O)n(C)c(=O)n3C)n2Cc2c(F)cccc2Cl)CC1
  1.57, -1.43

Compound profiles, from the list above.
Cc1noc(C)c1CCNC(=O)C1CCN(c2nnc(N3CCCC3=O)s2)CC1 reads HIV TAR-Tat: 2.3; CDC25B-CDK2 inh: ·
CCCCCCCCCCCCCC/C(C(=O)O)=C(\C)C(=O)O reads HIV TAR-Tat: 2.43; CDC25B-CDK2 inh: ·

Remaining list, next part.
Value order – HIV TAR-Tat, CDC25B-CDK2 inh
CC1=C(C(=O)Nc2ccc(Br)cc2F)C2(CCN(S(C)(=O)=O)CC2)OC1=O
  0.41, ·
Nc1nc(-c2ccccc2)cc(=S)s1
  ·, 2.88
COc1cc(C2/C(=C(\O)c3ccccc3)C(=O)C(=O)N2CCN(C)C)ccc1O (stereo not drawn)
  1.51, -4.67
COc1ccc2cc(CCNC(=O)C3CCCCC3)c(=O)[nH]c2c1
  ·, 0.37
FC(F)(F)c1ccc(-c2noc(-c3cccc(Br)c3)n2)cc1
  ·, -2.06
Cc1ccc(-c2nc(SCc3ccc(F)cc3)[nH]c(=O)c2C#N)cc1
  1.7, 1.73
Cc1cccc(Cn2c(SCC(O)CO)nc3c2c(=O)[nH]c(=O)n3C)c1 (stereo not drawn)
  1.57, -1.74
CC(C)c1nn2c(=O)cc(CSCC(=O)Nc3ccc(F)cc3)nc2s1
  0.39, ·
CC1=C(C(=O)OC(C)C)C(c2ccc(Br)cc2)C2=C(CCCC2=O)N1 (stereo not drawn)
  1.35, -1.38
CCCCOC(=O)c1cccc(NC(=O)c2c(C)cc(C)cc2C)c1
  ·, -1.16
CCSc1nn(CC(=O)Nc2ccccc2)c2nc3c(c(=O)n12)C(C)(C)Cc1ccccc1-3
  0.35, -0.95
Cc1noc2ncnc(N3CCC(C(=O)Nc4ccc5c(c4)OCO5)CC3)c12
  2.53, ·
Cc1ccc2c(=O)cc(C(=O)N(Cc3ccc(F)cc3)C3CCS(=O)(=O)C3)oc2c1C (stereo not drawn)
  -1.82, -2.63
O=c1[nH]c(CN2CCOCC2)nc2ccccc12
  1.72, -0.41
Cc1nc(S(=O)(=O)NC2CCCCC2)cn1C
  1.95, ·
C/C(=C1\N=C(c2ccccc2)OC1=O)N(C)C
  ·, -0.95
Cc1ccc(-n2cnnn2)c(Br)c1
  0.92, 0.45
CCCSc1nc2c(c(=O)[nH]1)C(c1ccncc1)C(C(=O)OC)=C(C)N2 (stereo not drawn)
  0.33, 0.79
COC(=O)c1cc(NC(=O)c2cccc(OCc3ccccc3)c2)cc(C(=O)OC)c1
  ·, -2.47
O=C(OCCc1ccccc1/C=C\[N+](=O)[O-])c1ccc(F)cc1
  ·, -0.43
Cn1c(C(=O)Nc2ccc3c(c2)OCCO3)cc2c(=O)[nH]c3ccccc3c21
  1.02, -0.31
C=C1CCC(OC(C)=O)/C(C)=C/C[C@@H]2[C@@H]1CC2(C)C (stereo partly drawn)
  0.65, ·
COc1cccc(C2c3c(-c4ccc(Cl)cc4)n[nH]c(=O)c3Nc3nnnn32)c1 (stereo not drawn)
  0.36, -0.84
O=C(CCC1CCCCC1)Nc1nnc2n1CCCS2
  1.9, ·
O=c1c(NCCc2c[nH]c3ccccc23)nccn1-c1ccc2c(c1)OCO2
  -2.79, ·
NC(=O)c1nc(Nc2ccccc2)sc1NC(=O)Cc1cccs1
  -0.59, ·
CC1CCCCN1C(=O)c1cc(S(=O)(=O)N2CCCC2)cn1C (stereo not drawn)
  2.07, ·
CC(C)(C)c1ccc(CN(C(=O)c2cc(=O)c3ccccc3o2)C2CCS(=O)(=O)C2)cc1 (stereo not drawn)
  -0.62, -1.12
Cc1ccc(I)cc1[N+](=O)[O-]
  ·, -1.13
Cc1c(C(=O)Nc2ccccc2Br)oc2c1-c1[nH]ncc1CC2
  -0.15, 1.04
CN(C)C(=O)c1c(NC(=O)c2cccs2)sc2c1CCC2
  ·, -0.36
COc1cccc(CNc2nc3ccccc3c3nc(CCn4c(C)nc5ccccc54)nn23)c1
  -0.06, 0.03
CC(C)C1C(=O)Nc2ccc(S(=O)(=O)NCc3ccccc3)cc21 (stereo not drawn)
  -0.34, ·
Cc1ccc(Cl)cc1-n1nnc(-c2nc(-c3ccc(F)cc3)no2)c1N
  -0.02, ·
COc1cc(NC(=O)N2c3ccccc3NC3=C(C(=O)CCC3)C2c2cccs2)cc(OC)c1 (stereo not drawn)
  1.81, ·
Cc1cc(C)cc(NC(=O)Nc2ccc(CC#N)cc2)c1
  ·, -0.64
Cn1ncc2c(Nc3ccc(F)c(F)c3)ncnc21
  1.76, ·
COC(=O)c1sccc1NC(=O)c1sc2nc3n(c(=O)c2c1C)CCCCC3
  0.18, ·
CCCNc1c(NCCC)c(=O)c1=O
  ·, -3.16
CCOC(=O)C1CCCN(S(=O)(=O)c2cc3c(cc2Cl)NC(=O)CO3)C1 (stereo not drawn)
  1.13, ·
CCCCNC(=O)c1c(C)oc2ncnc(N3CCCCC3)c12
  0.38, ·
COc1ccc(C2CC(=O)C3=C(C2)NC(C)=C(C(=O)OC2CCCC2)C3c2cccc(O)c2)cc1 (stereo not drawn)
  0.14, 0.67
CCOCC(=O)Nc1c(C)nc2sccn2c1=O
  0.63, ·
O=C1OCCC1Sc1nnc(-c2ccccc2Cl)o1 (stereo not drawn)
  1.13, -1.52
CCN1CCN(c2ncc(C(=O)NCc3ccco3)c(C)n2)CC1
  0.65, ·
Cn1c(=O)n(C)c2cc(CNCc3ccco3)ccc21
  0.44, 0.11
O=C(NCCCN1CCC(N2CCCCC2)CC1)C1COc2ccccc2C1 (stereo not drawn)
  0.63, ·
O=C(CN1C(=O)CSc2ccc(S(=O)(=O)N3CCOCC3)cc21)N1CCCCC1
  1.05, ·
COc1ccc(/C=C2\SC(=S)N(CCC(=O)Nc3ccc(F)cc3)C2=O)cc1OC
  ·, -0.61
Cc1cccc(CN2CCc3nc(N4CCCC4)ncc3C2)c1
  1.12, ·
CC1(C)CC(=O)c2cc(C(=O)Nc3ccc(Br)cc3)c(=O)[nH]c2C1
  0.59, -6.37
CCN1C(=O)C(O)(CC(=O)c2cccc3ccccc23)c2ccccc21 (stereo not drawn)
  -0.34, -0.48
CC1(C)COc2c(-c3ccccc3)nc3sc4c(NCCO)ncnc4c3c2C1
  -0.18, -0.26
CC(=O)N1CCc2cc3nc(C)cc(C)c3cc21
  -0.13, -1.2
CCOC(=O)Cn1c(CN2CCOCC2)nc2c1c(=O)n(C)c(=O)n2C
  -1.28, -1.75
CCc1nn2c(=O)cc(CSc3ccccc3NC(=O)c3cccs3)nc2s1
  2.25, ·
